AmpC nodet inh = Promiscuous and Specific Inhibitors of AmpC Beta-Lactamase (assay without detergent); AmpC nitrocefin hydrolysis, absorbance 480 nm, no detergent; potencies from a single point are estimates; Potency, µM (titrated, usually from 28.7 µM), for inactives: at the highest dose activity change, negative = inhibition; 71,000 compounds, 1.8% hits; AID 585, 2007; active = falling curve, for most hits resting on a single point; inconclusive = weak or doubtful change; inactive = flat or rising curve; further: % of control where 0% means no effect; about half of the hits show no inhibition at the top dose; a quarter of the inactives give rising signals
Target sequence (P00811 whole entry, looked up): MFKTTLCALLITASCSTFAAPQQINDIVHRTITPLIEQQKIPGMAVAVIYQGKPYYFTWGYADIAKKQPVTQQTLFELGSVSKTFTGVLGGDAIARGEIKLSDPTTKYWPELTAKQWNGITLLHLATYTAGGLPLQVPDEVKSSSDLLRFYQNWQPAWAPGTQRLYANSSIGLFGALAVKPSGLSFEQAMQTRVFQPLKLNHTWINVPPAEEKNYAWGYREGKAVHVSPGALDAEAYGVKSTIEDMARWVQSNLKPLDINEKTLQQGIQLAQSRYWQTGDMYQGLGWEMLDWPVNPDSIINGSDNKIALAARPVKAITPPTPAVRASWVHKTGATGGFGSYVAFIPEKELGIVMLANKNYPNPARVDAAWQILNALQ
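AmpC, 20 mM phosphate pH 7.0; 15 min cpd preinc, RT; start with nitrocefin (800 uM stock); A480 kinetic read, 20 s intervals, 4 min. No-enzyme wells = negative control.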
* hit, by the source's call; ? = inconclusive; [ ] = remark or other dose. Potency means the concentration at half of the fitted maximal effect. Some of the compounds tested; rates above refer to the full screens.

molecule | AmpC nodet inh
COc1cc(C(=O)NCCC(=O)NC2CCCCCCC2)cc(OC)c1OC | 42.1%
CCOC(=O)Nc1ccc2c(c1)Nc1ccccc1S2 | -6.0%
COc1ccc(CSc2nc(C)cc(=O)[nH]2)cc1 | -5.8%
O=C(Cn1ncc2c(=O)oc3ccccc3c21)NCC1COc2ccccc2O1 (stereo not drawn) | 0.794µM*
CCCCCc1nnc(NC(=O)C2CCCO2)s1 (stereo not drawn) | 12.4%
CN(C(=O)CSc1ncccc1C(=O)O)c1ccccc1 | -11.4%
COC(=O)c1cc(C(=O)OC)cc(S(=O)(=O)Nc2ccc(Cl)c(N)c2)c1 | ?
O=C(c1cccc(F)c1)N1CCN(C(=O)c2cc(-c3ccc(Cl)cc3Cl)on2)CC1 | 97.6%
COc1cc(C)c(Br)cc1S(=O)(=O)N1CCCC1 | 5.7%
COc1ccc(S(=O)(=O)N2CCC(NC(=O)Nc3ccc(C)cc3)CC2)cc1 | -1.0%
Cc1cc(Br)c(S(=O)(=O)n2nnc3ccccc32)cc1C | 11.8%
Cc1nc2ccc3nc(NC(=O)c4ccc(S(=O)(=O)N5CCOCC5)cc4)sc3c2s1 | 85.8%

Additional records:
molecule | AmpC nodet inh
COc1cccc(N2CCN(C(=O)CCn3c(=S)[nH]c4cc5c(cc4c3=O)OCO5)CC2)c1 | 2.3%
CN(C)c1cc(-c2ccccc2)nc(N)n1 | 2.2%
COCCn1c(C)cc(C(=O)CSc2nnc3scc(-c4ccc(Cl)cc4)n23)c1C | 30.7%
O=C(Cn1nnc(-c2cccc(C(F)(F)F)c2)n1)NC(=O)NCc1ccco1 | -9.1%
Cn1c(Cn2c(=O)sc3ccccc32)nnc1SCC(=O)NCc1ccccc1Cl | 1.4%
COc1cccc(C(=O)N2CCN=C2SCc2cccnc2)c1OC | 22.9%
Cc1ccc(-c2nnn(CC(=O)NC3CC4CCC3C4)n2)cc1 (stereo not drawn) | 0.2%
CC(C)Cn1cc(C(=O)NCCCN2CCCC2=O)c2c3ccccc3n(C)c2c1=O | 91.8%
OC(CCl)CCl | -6.2%
Cc1ccc(SC(C)c2nc(-c3cccnc3)no2)cc1 (stereo not drawn) | 45.0%
CCCCn1c(=N)n(CC(O)COc2ccc(C)cc2)c2ccccc21 (stereo not drawn) | 0.0%
Cn1c(=O)c2c(nc(N3CCCCCC3)n2CC(=O)c2ccccc2)n(C)c1=O | 79.1%

(more compounds)
molecule | AmpC nodet inh
CCn1cc(NC(=O)Nc2ccccc2C(=O)OC)c(C(N)=O)n1 | 2.8%
O=C(COc1ccccc1)NC(Cc1c[nH]c2ccccc12)C(=O)O (stereo not drawn) | -11.2%
Cc1[nH]nc2c1C(c1ccccc1F)CC(=O)N2 (stereo not drawn) | 3.2%
CCOC(=O)C1=C(C)NC(SCC(=O)Nc2cc(C)on2)=C(C#N)C1c1cccs1 (stereo not drawn) | -15.3%
COc1ccc(-n2c(SCC(=O)NCC3CCCO3)nc3n[nH]c(C)c3c2=N)cc1 (stereo not drawn) | 10.6%
Cc1cnc(C(=O)Nc2ccc3c(c2)CCC3)cn1 | 19.3%
COc1ccc(OC(C)C(=O)NC2CC(C)(C)NC(C)(C)C2)cc1 (stereo not drawn) | -8.7%
CC(C)(C)NC[C@H](O)c1cc(O)cc(O)c1 | -2.3%[12.8 µM]
CCn1c(COc2cccc(C)c2)nnc1SCC(=O)N1CCCC1 | 46.8%
CC(=O)c1c(C)nc2ccc(Br)cc2c1C(=O)O | -8.5%
CCCN1CCN(C(=O)c2cn(CC(C)C)c(=O)c3cc(OC)c(OC)cc23)CC1 | 21.9%
CCOC(=O)c1cc(-c2ccco2)nc2c1c(C)nn2-c1ccccc1 | -2.9%

New compounds follow:
molecule | AmpC nodet inh
CCOC(=O)c1sc(=N)n(-c2ccc(OC)cc2)c1C | 18.1%
Cc1nn(-c2nc3ccccc3n2Cc2ccccc2)c2c1C(=O)CC(C)(C)C2 | 77.6%
COc1ccccc1CN1CC(C(=O)N2CCN(c3ccc(F)cc3)CC2)CC1=O (stereo not drawn) | 107.0%
Cc1ccccc1NS(=O)(=O)c1cc(C(N)=O)ccc1C | -5.8%
COc1cccc(C(=O)CN2CCC(NC(=O)NC3CCCCC3)CC2)c1 | 11.0%
Cc1cccc2ccccc12 | -1.1%
COCCn1c(=S)[nH]c2cc(C(=O)NCCCN3CCOCC3)ccc2c1=O | -6.4%
C=CCN=C(CC)C1=C(O)CCCC1=O | -7.8%
COc1cccc(N2CCN(Cc3nc4ccccc4c(=O)[nH]3)CC2)c1 | 28.5%
COCCn1cnc2cc(C)c(C)cc21 | 8.6%
Oc1cccc(O)c1 | 0.2%
Fc1ccc(CNc2nc(-c3ccco3)cc(C(F)(F)F)n2)cc1 | -18.0%

Next part:
molecule | AmpC nodet inh
CCOC(=O)c1cc(-c2ccc(F)cc2)n(CC(=O)Nc2nccs2)c1C | 3.16µM*[single pt active]
COC(=O)c1ccccc1NC(=O)C1CCCN(S(=O)(=O)c2ccc(OC)cc2)C1 (stereo not drawn) | 50.1%
Cc1ccc(F)c(NC=C2C(=O)OC(C)(C)OC2=O)c1 | -3.8%
CCOC(=O)N1CCC(Nc2c(Nc3ccc(C)c(C)c3)c(=O)c2=O)CC1 | 25.4%
Cn1c(=O)c(CCc2ccccc2)nc2cncnc21 | 5.0%
Nc1ncnc2c1ncn2C[C@@H](O)C(=O)O | -0.4%[5.75 µM]
CC1(C)Cc2ccccc2C(Nn2cnnc2)=N1 | -2.1%
O=c1c(-c2ccccc2)nc2cnc(N3CCNCC3)nc2n1Cc1ccc(F)cc1 | 77.7%
CS(=O)(=O)N(Cc1ccc(F)cc1)Cc1nc2ccccc2c(=O)[nH]1 | -11.5%
CCNc1ncc2nc(CCc3ccccc3)c(=O)n(CCOC)c2n1 | -3.0%
COc1ccc(CNc2ncncc2-c2ccccc2Cl)c(OC)c1 | 36.2%
O=C(O)c1cccc(CSc2nnc(COc3ccccc3)o2)c1 | -0.8%

Next section; the last 6 above are carried over.
molecule | AmpC nodet inh
CC1(C)Cc2ccccc2C(Nn2cnnc2)=N1 | -2.1%
O=c1c(-c2ccccc2)nc2cnc(N3CCNCC3)nc2n1Cc1ccc(F)cc1 | 77.7%
CS(=O)(=O)N(Cc1ccc(F)cc1)Cc1nc2ccccc2c(=O)[nH]1 | -11.5%
CCNc1ncc2nc(CCc3ccccc3)c(=O)n(CCOC)c2n1 | -3.0%
COc1ccc(CNc2ncncc2-c2ccccc2Cl)c(OC)c1 | 36.2%
O=C(O)c1cccc(CSc2nnc(COc3ccccc3)o2)c1 | -0.8%
COc1ccc(-c2noc(CN(C)S(=O)(=O)c3ccccc3)n2)cc1OC | 34.0%
COc1ccccc1-c1ccc(=O)n(CC(=O)Nc2ccc(C(=O)N3CCCC3)cc2)n1 | 71.4%
O=C(Nc1nc2n(n1)C(c1ccc(Cl)cc1)CC(c1ccc(Cl)cc1)N2)c1ccco1 (stereo not drawn) | 38.9%
O=C1CCCC2=C1C1(O)C(=O)c3ccccc3C1(O)O2 (stereo not drawn) | -4.2%
NCCSC[C@H](N)C(=O)O | -7.7%[5.75 µM]
O=C(O)CCSc1nc2ccccc2n1CCOc1ccccc1 | 2.9%
CCn1cc(C(=O)O)c(=O)c2ccc(Cc3ccccc3)nc21 | -4.5%
O=C(CC12CC3CC(CC(C3)C1)C2)NCCN1CCOCC1 | 7.4%
CCOCCCN1C(=O)CN(C2CCCCC2)C(=O)C1c1ccc(OCC)c(OC)c1 (stereo not drawn) | 68.3%
C[C@@]12CCC(=O)C=C1C=C[C@H]1[C@H]3CC[C@](O)(CCC(=O)O)[C@]3(C)CC[C@@H]12 | -3.8%[12.8 µM]
CCc1nnc(NC(=O)CSc2nnc(C3CCCCC3)n2-c2ccccc2)s1 | 45.6%
Cc1ccc(-n2c(SCC(=O)Nc3ccc4c(c3)OCCO4)nnc2-c2ccco2)cc1 | 57.2%

Among those listed so far, these have a CF3 group:
molecule | AmpC nodet inh
O=C(Cn1nnc(-c2cccc(C(F)(F)F)c2)n1)NC(=O)NCc1ccco1 | -9.1%
Fc1ccc(CNc2nc(-c3ccco3)cc(C(F)(F)F)n2)cc1 | -18.0%

(continued)
molecule | AmpC nodet inh
O=C1CCCc2sccc2N1 | -3.8%
CCOC(=O)C1CCN(C(=O)COc2ccc(S(=O)(=O)NC(C)(C)C)cc2)CC1 | 40.1%
O=C(CSc1nnc(Cc2cc(=O)[nH]c(=O)[nH]2)n1-c1ccccc1)N1CCCCC1 | 3.16µM*[single pt active]
Cc1ccc(-c2cn3cccnc3n2)cc1NC(=O)c1ccc(Br)o1 | 31.8%
CCOC(=O)N1CCN(C(=O)CN(c2ccc(OCc3ccccc3)cc2)S(C)(=O)=O)CC1 | 130.7%
CC(NC(=O)c1cc2ccccc2o1)C(=O)O (stereo not drawn) | -9.1%
CCC(C)(C)OC | -2.0%
CCOC(=O)N1CCC(NC(=O)CN2C(=O)C(CC)Oc3ccc(C)cc32)CC1 (stereo not drawn) | 58.8%
Cc1cc(C)n2nc(SCC(=O)c3ccccc3)nc2n1 | 17.9%
COc1ccccc1N1C(=O)N(C(C)=O)C2C1Nc1ccccc1N2C (stereo not drawn) | 119.5%
O=S(=O)(O)c1nc2ccccc2n1Cc1ccc(Cl)cc1 | -13.2%
N#CC1=C(SCc2ccccc2)NC(=O)CC1c1ccco1 (stereo not drawn) | -13.0%

Continued.
molecule | AmpC nodet inh
O=C(O)CSc1ccc([N+](=O)[O-])cc1[N+](=O)[O-] | -8.0%[5.75 µM]
Cc1ccc(OCc2nnc(SCC(=O)Nc3ccc4c(c3)OCO4)n2C)cc1 | 23.8%
O=C(OCn1nnc2ccccc2c1=O)c1cccs1 | 4.7%
Cc1ccc(CSc2nnc(-c3ccc(S(=O)(=O)N4CCCC4)cc3)o2)cc1 | -4.0%
O=C(NCCCN1CCCC1=O)c1ccccc1NS(=O)(=O)c1ccc(F)cc1 | 20.3%
O=C(NCc1ccco1)c1csc(Nc2ccccc2Cl)n1 | -10.4%
Cc1ccc(N)c(C(=O)CCCCC(=O)O)c1 | -2.3%
Cc1ccc(C)c(NC(=O)C(Sc2nncn2C)c2ccccc2)c1 (stereo not drawn) | 11.1%
COc1ccc(C(=O)Cn2nnc(-c3ccccc3-n3cnnn3)n2)cc1 | -2.0%
CCn1c(SCc2ccccc2)nnc1-c1cccs1 | 16.9%
CN(C)/C=C(\C#N)c1nc2ccccc2[nH]1 | -11.2%
CCOC(=O)c1[nH]c2ccccc2c1NC(=O)c1ccc(Br)o1 | -8.3%

Other structures.
molecule | AmpC nodet inh
CCOc1ccc(NS(=O)(=O)c2ccc3[nH]cc(C(=O)N(CC)CC)c(=O)c3c2)cc1 | -14.3%
C=CCOc1ccccc1/C=c1\sc2nc(=O)c(C)nn2c1=O | 6.8%
COC(=O)C1CCN(C(=O)Cc2ccc(OC)c(OC)c2)CC1 | 10.3%
Cc1nc2ccccc2c2oc(C(=O)NCC3COc4ccccc4O3)cc12 (stereo not drawn) | 116.8%
Cn1c(CSCc2ccc(Cl)c(Cl)c2)nnc1SCC(=O)Nc1nccs1 | 13.6%
COC(=O)c1c(=O)n(O)c2ccc(OC)cc2[n+]1[O-] | 2.6%
CCn1c(CSc2nc3ccccc3[nH]2)n[nH]c1=S | -13.4%
CCC(=O)OCC(=O)[C@@]1(OC(=O)CC)[C@H](C)C[C@@H]2[C@H]3CCC4=CC(=O)C=C[C@]4(C)[C@]3(Cl)[C@@H](O)C[C@@]21C | 79.0%[12.8 µM]
CCOc1cc(CN2CCSCC2)ccc1O | 3.6%
Cc1ccc(-c2nc(CSCC(=O)NCCCN3CCOCC3)c(C)o2)cc1 | 53.9%
Cc1nnc(SCC(=O)N2CCN(S(=O)(=O)c3ccccc3)CC2)[nH]c1=O | -12.5%
COc1ccc(S(=O)(=O)N2CCCCC2)cc1Br | 7.5%

(cont.)
molecule | AmpC nodet inh
c1ccc(-c2nnc3sc(CN4CCC5(CC4)OCCO5)cn23)cc1 | 4.8%
CCCCCc1nnc(NC(=O)CS(=O)(=O)Cc2ccccc2)s1 | -15.7%
O=C(NCc1ccco1)C(Cc1ccccc1)N1C(=O)c2ccccc2C1=O (stereo not drawn) | -8.9%
Cc1cccc(CNc2cc(-c3ccccc3C)ncn2)c1 | 22.5%
CCCc1c(C)c2ccc(OCC(C)=O)cc2oc1=O | 19.8%
CCOC(=O)NCc1ccc(CNC(=O)OCC)cc1 | 19.0%
BrC/C=C/CBr | -8.7%
COc1cccc(/C=N/n2c(C)nc3ccccc32)c1OC | 100.9%
COc1ccc(OC)c(NC(=O)c2nnn(Cc3ccccc3C)c2N)c1 | 14.2%
NC(=O)NC(Cc1ccccc1)c1ccccc1 (stereo not drawn) | 9.1%
CC(=O)c1c(C)[nH]c(C(=O)Nc2ccc3c(c2)OCCO3)c1C | -5.3%
CCSc1nnc(NC(=O)c2csc3c2CCCC3)s1 | -18.2%

Remaining list, next part:
molecule | AmpC nodet inh
CC(NC(N)=O)C12CC3CC(CC(C3)C1)C2 (stereo not drawn) | -5.6%
CC(C)C(c1nnnn1Cc1ccc2c(c1)OCO2)N1CCN(c2ccccc2)CC1 (stereo not drawn) | 23.6%
Cc1ccc(-c2cccc(NC(=O)C3C(C(=O)O)[C@@H]4C=C[C@H]3C4)c2)o1 (stereo partly drawn) | -10.6%
CCn1cc2c(c1-c1cccc(C)c1)c(=O)n(C)c(=O)n2C | 34.1%
COc1cccc2c(=O)cc(C)n(CC(=O)Nc3ccc(C)c(C)c3)c12 | 143.7%
COc1ccc(CCNC(=O)CSc2nc(O)c(CC(C)C)c(=O)[nH]2)cc1OC | 11.3%
CC(=O)Nc1ccc2c(c1)nc(CCNC(=O)c1ccccc1)n2C | -3.4%
COc1ccc(C(=O)CSc2nnc(-c3cc(C)cc(C)c3)o2)cc1 | 48.8%
CCOC(=O)c1c(CN2CCCCC2)oc2ccc(O)cc12 | 0.9%
